Sfp PPTase inh = inhibitors of Bacillus subtilis Sfp phosphopantetheinyl transferase; Q9F4F7; Biochemical Sfp PPTase activity, qHTS; Potency, µM, for the others: max response, negative = inhibition, hits mostly inhibitors; 3.5% of 310,000 active; AID 1490; active = well fitted inhibition curve with a large enough effect; inconclusive = small, poorly fitted or top-dose-only effect, or another doubt; inactive = no such curve, though single readings can be large or run the other way;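 note: the enzyme is Sfp with the accession as filed and its product quenches rhodamine fluorescence; potency is the fitted concentration of half-maximal effect; 0% = enzyme reaction without inhibitor and -100% = no enzyme wells; top concentration of the series not given in the record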
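With Hepes-Na pH 7.6 buffer containing 10 mM MgCl2, Sfp (15 nM) modified BHQ-2-YbbR (12.5 uM) using rhodamine-CoA (5 uM). Two reads 30 minutes apart at 525/598 nm yielded each well's rate.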
gsp antag = gsp mutant antagonism; gsp-mutant cells, cAMP HTRF, 30 min; control for the full effect not named in the record; Potency, µM (top dose mostly 76.9 µM), without a hit: at the highest dose activity change, negative = inhibition, actives largely listed as inhibitors; 0.4% of 340,000 active; AID 624288; active = falling curve of any shape with a large fitted effect; inconclusive = falling curve, mostly with a smaller effect; inactive = flat or rising curve; cell line not stated here;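 note: intracellular cAMP measured with PDE inhibitor Ro 20-1724 present during compound exposure; potency is the fitted concentration of half-maximal effect; % is set by controls: 0 for no effect and ±100 for the full control effect; nearly all actives have a fitted effect of over 65% in size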
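HTRF cAMP read-out (cAMP-d2 plus anti-cAMP antibody-K in lysis buffer, 30 min RT). Before lysis, cells are exposed to compounds with […] for 30 min at 37C in DPBS containing Ca/Mg, BSA and Tween 20.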
CtBP-E1A inh = blocks the CtBP interaction with E1A; AlphaScreen GST-E1A/His-CtBP binding, 1536-well; stronger effect = lower value; control for the full effect not named in the record; activity change, % (test concentration not listed); 0.49% of 340,000 active; in the data active means activity change below about -65%; inconclusive means about -30% to -65%; inactive means above about -30%; note: % is set by controls: 0 for no effect and ±100 for the full control effect; compound concentration not given in the record
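AlphaScreen with 125 nM GST-E1A and 125 nM His-CtBP (5X stocks) in Tris pH 8.0, 300 mM NaCl, BSA, Tween 20, TCEP. Compounds preincubated 2 h at 37 deg C, then glutathione donor/nickel acceptor beads added for 1 h at 37 deg C in dark.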
ClpP mod = qHTS Assay for Activators of ClpP | ATP-dependent Clp protease proteolytic subunit (Bacillus subtilis (strain 168)), P80244 | purified B. subtilis ClpP, FRET peptide cleavage, 20 min | Potency, µM (series often up to 57.5 µM), without a hit: at the highest dose activity change, negative = active | 1.9% of 340,000 active; active = well fitted falling curve with a large enough effect; inconclusive = small, poorly fitted or top-dose-only effect; inactive = no such curve, though single readings can be large or run the other way; note: potency is the fitted concentration of half-maximal effect; the source files actives as falling curves though it sought activators and does not explain the sign; nearly all actives have a fitted effect of over 65% in size; many hits overshoot -100%
Target sequence (P80244 whole entry, looked up): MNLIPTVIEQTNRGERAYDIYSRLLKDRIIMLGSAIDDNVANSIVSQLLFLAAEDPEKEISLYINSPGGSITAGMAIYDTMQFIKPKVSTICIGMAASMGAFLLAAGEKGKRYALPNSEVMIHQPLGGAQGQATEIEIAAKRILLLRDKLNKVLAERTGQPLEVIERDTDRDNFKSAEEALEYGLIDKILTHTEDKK
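FRET quenching reversal measured ClpP activation: 10 microg/mL B. subtilis ClpP at pH 8 with the FRET-FV decapeptide, read at 430 nm after 320 nm excitation. The 20-min minus 0-min signal was scaled between DMSO/no-enzyme wells and ADEP (5.8 microM final).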
gsp agonist = agonists of gsp mutant (McCune-Albright syndrome) | Potency, µM (top dose mostly 76.9 µM), for inactives: top-dose activation (cAMP increase), hits mostly activators | 0.13% of 340,000 active | AID 624287 | gsp mutant cells, cAMP HTRF, 30 min; control for the full effect not named in the record; active = well fitted activation curve with a large enough effect; inconclusive = small, poorly fitted or top-dose-only effect, or another doubt; inactive = no such curve, though single readings can be large or run the other way; cell line not stated here;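 note: phosphodiesterase inhibitor Ro 20-1724 added with compounds to block cAMP breakdown; potency is the fitted concentration of half-maximal effect; nearly all actives have a fitted effect of over 60% in size; about a fifth of the inactives were tested at one dose only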
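Cells stably selected in G418 were plated at 2000/well, grown 16-24 hr, then given compounds in DMSO with the PDE inhibitor […] (300 uM solution added) for 30 min at 37C; cAMP was read by HTRF.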
TRPV1 PAM = potentiators of human vanilloid receptor 1 (TRPV1); Q8NER1; TRPV1-expressing cells, Fluo-8 calcium influx, capsaicin EC20 potentiation; host cell line not named in the record; control for the full effect not named in the record; potentiation, % at 8.33 µM; 0.02% of 320,000 active; active means potentiation above 80%; inconclusive means 30% to 80%; inactive means below 30%; note: 0% is about no effect
Target sequence (Q8NER1 whole entry, looked up): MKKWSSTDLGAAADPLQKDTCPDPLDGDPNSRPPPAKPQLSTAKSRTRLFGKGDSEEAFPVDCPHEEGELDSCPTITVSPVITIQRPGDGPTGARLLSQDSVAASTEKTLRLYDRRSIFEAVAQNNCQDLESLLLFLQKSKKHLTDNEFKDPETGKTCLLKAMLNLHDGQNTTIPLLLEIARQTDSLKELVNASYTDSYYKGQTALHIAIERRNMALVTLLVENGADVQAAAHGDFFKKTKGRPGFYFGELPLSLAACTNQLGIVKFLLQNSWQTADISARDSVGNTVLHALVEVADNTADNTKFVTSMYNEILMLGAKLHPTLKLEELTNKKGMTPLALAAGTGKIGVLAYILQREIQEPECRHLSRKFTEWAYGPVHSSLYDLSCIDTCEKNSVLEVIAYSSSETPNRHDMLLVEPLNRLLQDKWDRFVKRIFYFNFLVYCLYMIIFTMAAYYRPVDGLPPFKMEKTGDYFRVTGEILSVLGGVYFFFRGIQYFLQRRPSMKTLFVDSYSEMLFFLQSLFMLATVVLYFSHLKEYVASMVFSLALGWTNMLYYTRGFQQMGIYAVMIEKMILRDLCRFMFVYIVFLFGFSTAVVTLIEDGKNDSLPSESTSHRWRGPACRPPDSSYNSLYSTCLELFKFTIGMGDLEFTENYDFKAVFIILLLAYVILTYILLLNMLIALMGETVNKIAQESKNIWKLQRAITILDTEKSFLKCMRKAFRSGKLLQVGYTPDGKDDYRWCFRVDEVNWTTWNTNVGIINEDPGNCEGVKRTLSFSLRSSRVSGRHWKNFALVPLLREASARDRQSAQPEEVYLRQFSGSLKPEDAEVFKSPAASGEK
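TRPV1-expressing cells were cultured overnight at 35.5C and loaded with Fluo-8 calcium dye for 40 to 90 min at room temperature. After a 10 s baseline, compound was added and calcium influx was read kinetically for 3 min (ex 480/em 520 nm).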
Menin-MLL FL inh = displaces fluorescein MLL peptide from human menin. AID 1766. FP activity change, % at 61.4 µM. 290,000 tested, under 10 active. Fluorescence polarization, fluorescein-MLL peptide displacement from menin; inconclusive = falling polarisation curve, or a change in total fluorescence; inactive = total fluorescence flat and polarisation flat or rising; no compound was filed as active; the % refers to the polarisation; negative = inhibition;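 note: % of control where 0% means no effect; inhibitors lower the polarisation; unlabelled MLL peptide was the positive control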
An asterisk follows results filed as active; & = joins results of further samples; [ ] = remark or other dose.

Results for O=C1N[C@H](Cc2ccccc2)COC(=O)[C@H](Cc2ccc(F)cc2)CC/C=C/C[C@H]1CC(=O)N(CCO)Cc1ccccc1 ?
gsp antag: -16%; CtBP-E1A inh: -5; ClpP mod: -0.2%

How did Cc1nn(CC(C)C)c(Cl)c1C(=O)NCC1CCCO1 (stereo not drawn) do in these assays?
CtBP-E1A inh: -1; ClpP mod: 0.6%; gsp agonist: inconclusive

What do the screens show for `O=C(NCc1ccncc1)C12CC3CC(CC(C3)C1)C2`?
Sfp PPTase inh: -3%; gsp antag: -2%; CtBP-E1A inh: 1; ClpP mod: -3.9%; gsp agonist: 30%; TRPV1 PAM: -4; Menin-MLL FL inh: -0.4

Results for CC(C)OC(=O)CSc1nc(N)c(C#N)cc1C#N ?
Sfp PPTase inh: 26%; gsp antag: 1%; CtBP-E1A inh: 2; gsp agonist: 9%; TRPV1 PAM: -10; Menin-MLL FL inh: 1.9

Results for O=C(CSc1ccccn1)NCc1ccc2c(c1)OCO2 ?
Sfp PPTase inh: 14%; gsp antag: 11%; CtBP-E1A inh: 6; gsp agonist: -3%[15.4 µM]; TRPV1 PAM: 7; Menin-MLL FL inh: -0.9

How did O=C(/C=C/c1ccc([N+](=O)[O-])cc1)OCC(=O)c1ccc[nH]1 do in these assays?
gsp antag: 13%; CtBP-E1A inh: 9; ClpP mod: 0.6%; gsp agonist: -16%

How did COc1ccccc1CNC(=O)C1CCN(c2ncnc3c2nc2n3CCCCC2)CC1 do in these assays?
Sfp PPTase inh: 8%; gsp antag: 1%; CtBP-E1A inh: 0; ClpP mod: -2.2%&2.8%; gsp agonist: 61%; TRPV1 PAM: 4; Menin-MLL FL inh: 0.0

Results for Cc1ccc(S(=O)(=O)NC(=O)c2cccc(Br)c2)cc1 ?
Sfp PPTase inh: 14%; gsp antag: -7%; CtBP-E1A inh: -6; ClpP mod: 1.4%; gsp agonist: -48%[inhibitor]; TRPV1 PAM: 13

How did Cc1ccc(NC(=O)CCC(=O)NNC(=O)c2cccc([N+](=O)[O-])c2)cc1C do in these assays?
Sfp PPTase inh: 24%; gsp antag: -2%; CtBP-E1A inh: -14; ClpP mod: -1.1%; gsp agonist: -1%; TRPV1 PAM: -8; Menin-MLL FL inh: 0.7

What do the screens show for `Cc1cc(NC(=O)C2CC(=O)N(c3ccc(F)cc3)C2)no1` (stereo not drawn)?
Sfp PPTase inh: 13%; gsp antag: -2%; CtBP-E1A inh: 0; gsp agonist: -5%; TRPV1 PAM: 5; Menin-MLL FL inh: -8.6

How did Cc1ccc(CN2CC(C(=O)Nc3ccc(C)cn3)CC2=O)cc1 (stereo not drawn) do in these assays?
gsp antag: 12%; CtBP-E1A inh: -10; gsp agonist: 7%[15.4 µM]; TRPV1 PAM: 8

How did O=C(c1cnn2c1NC(c1ccc(Br)cc1)CC2C(F)(F)F)N1CCN2CCCC2C1 (stereo not drawn) do in these assays?
Sfp PPTase inh: 0%; gsp antag: -1%; CtBP-E1A inh: inconclusive; ClpP mod: -2.2%; gsp agonist: inconclusive; TRPV1 PAM: -6; Menin-MLL FL inh: 0.0

What do the screens show for `COc1ccc([C@H]2N[C@]3(CCCN(CC4CCCCC4)C3=O)[C@H]3C(=O)N(C)C(=O)[C@@H]23)cc1`?
CtBP-E1A inh: 2; ClpP mod: 0.5%; gsp agonist: 0%

How did COc1ccc(N2CC(C(=O)Nc3c(C(N)=O)oc4ccccc34)CC2=O)cc1 (stereo not drawn) do in these assays?
gsp antag: 4%; CtBP-E1A inh: 9; ClpP mod: -4.0%; gsp agonist: 8%; TRPV1 PAM: -7

Results for C[C@@H](NC(=O)c1nc[nH]c1C(=O)NCCCCCNC(=O)OC(C)(C)C)c1ccccc1 ?
gsp antag: -4%; CtBP-E1A inh: -1; ClpP mod: 3.6%; gsp agonist: 18%

How did O=C(COc1ccc(Cl)cc1Cl)NC(=O)N1CCCCC1 do in these assays?
Sfp PPTase inh: 19%; gsp antag: -3%; CtBP-E1A inh: 10; ClpP mod: 0.4%; gsp agonist: -1%; TRPV1 PAM: -3; Menin-MLL FL inh: 0.2

How did CCCCCCCCCCOC(=O)Cn1c(COc2ccc(OC)cc2)[n+](C)c2ccccc21 do in these assays?
Sfp PPTase inh: 35µM*; gsp antag: 8%&3%; CtBP-E1A inh: 0; ClpP mod: 0.4%; gsp agonist: inconclusive; TRPV1 PAM: 3&-7; Menin-MLL FL inh: 0.2&-6.2

What do the screens show for `CCOC(=O)N1CCN(C(=O)c2cccc(NC(=O)c3ccco3)c2)CC1`?
Sfp PPTase inh: 2%; gsp antag: 3%; CtBP-E1A inh: -2; ClpP mod: -2.3%; gsp agonist: -7%; TRPV1 PAM: 1; Menin-MLL FL inh: 4.8

How did Cc1ccc(NC(=O)CN(C)C(=O)CSc2nc(C)cs2)cc1 do in these assays?
Sfp PPTase inh: 2%; gsp antag: 7%; CtBP-E1A inh: 5; gsp agonist: 4%[15.4 µM]; TRPV1 PAM: 0; Menin-MLL FL inh: 1.6

How did CN(Cc1ccccc1)C(=O)c1ncn2c1c(=O)[nH]c1cccnc12 do in these assays?
CtBP-E1A inh: 1; ClpP mod: -27%; gsp agonist: inconclusive

A portion from further up, for reference:
Results for O=C1N[C@H](Cc2ccccc2)COC(=O)[C@H](Cc2ccc(F)cc2)CC/C=C/C[C@H]1CC(=O)N(CCO)Cc1ccccc1 ?
gsp antag: -16%; CtBP-E1A inh: -5; ClpP mod: -0.2%

How did Cc1nn(CC(C)C)c(Cl)c1C(=O)NCC1CCCO1 (stereo not drawn) do in these assays?
CtBP-E1A inh: -1; ClpP mod: 0.6%; gsp agonist: inconclusive

Next section
How did CCOC(=O)C1=C(C)N=c2s/c(=C/c3ccc(OCC(=O)O)cc3)c(=O)n2C1c1cc(OC)c(OC)c(OC)c1 (stereo not drawn) do in these assays?
Sfp PPTase inh: -8%; gsp antag: -10%; CtBP-E1A inh: inconclusive; ClpP mod: -1.9%; gsp agonist: -13%[15.4 µM]; TRPV1 PAM: 3; Menin-MLL FL inh: inconclusive

What do the screens show for `CN(C)S(=O)(=O)c1ccc(NC(=O)COC(=O)C2COc3ccccc3O2)cc1` (stereo not drawn)?
Sfp PPTase inh: 27%; gsp antag: -5%; CtBP-E1A inh: 0; gsp agonist: 3%[15.4 µM]; TRPV1 PAM: -1; Menin-MLL FL inh: -1.1

How did CCN(C(=O)COC(=O)/C=C/c1cnc2ccccc2n1)C1CCS(=O)(=O)C1 (stereo not drawn) do in these assays?
Sfp PPTase inh: inconclusive; gsp antag: -14%; CtBP-E1A inh: 7; ClpP mod: 84%; gsp agonist: 6%[15.4 µM]; TRPV1 PAM: 0; Menin-MLL FL inh: 0.5

What do the screens show for `O=C(Nc1nn(Cc2ccccc2F)cc1Br)c1cccs1`?
Sfp PPTase inh: 3%; gsp antag: 0%; CtBP-E1A inh: 3; ClpP mod: 0.3%; gsp agonist: 0%; TRPV1 PAM: 0; Menin-MLL FL inh: 2.1

What do the screens show for `CCOC(=O)c1c(C)[nH]c(C)c1C(=O)CSc1nc2ccccc2c(=O)n1-c1ccccc1C`?
Sfp PPTase inh: 4%; gsp antag: 3%; CtBP-E1A inh: -18; ClpP mod: 28µM*; gsp agonist: 1%; TRPV1 PAM: -2; Menin-MLL FL inh: 2.1

Results for O=C(Nc1ccc(COc2ccccc2)cc1)Oc1ccccc1N1CCOCC1 ?
Sfp PPTase inh: 10%; gsp antag: 0%; CtBP-E1A inh: 2; ClpP mod: -3.3%; gsp agonist: 9%[15.4 µM]; TRPV1 PAM: 1; Menin-MLL FL inh: 1.1

What do the screens show for `CCn1c(SCc2ccc(C(=O)Nc3nccs3)cc2)nnc1-c1ccc(N)cc1`?
Sfp PPTase inh: -19%; gsp antag: 6%; CtBP-E1A inh: inconclusive; ClpP mod: 0.2%; gsp agonist: 1%; TRPV1 PAM: 2; Menin-MLL FL inh: 2.1

How did COc1ccc(NC2CCCN(C(=O)CCc3cn[nH]c3)C2)cc1 (stereo not drawn) do in these assays?
Sfp PPTase inh: 8%; gsp antag: -10%; CtBP-E1A inh: -4; ClpP mod: -5.7%; gsp agonist: -11%; TRPV1 PAM: inconclusive; Menin-MLL FL inh: 5.7

What do the screens show for `O=S(=O)(Nc1ccc(-c2ccc(N3CCOCC3)nn2)cc1)c1cc(Cl)ccc1Cl`?
gsp antag: inconclusive; CtBP-E1A inh: 6; ClpP mod: 1.0%; gsp agonist: -6%; TRPV1 PAM: 13

Results for CCCCC(=O)Nc1cc(C)c(NC(=O)c2cccs2)cn1 ?
Sfp PPTase inh: 16%; gsp antag: 6%; CtBP-E1A inh: -5; ClpP mod: 0.0%; gsp agonist: 10%[15.4 µM]; TRPV1 PAM: -5; Menin-MLL FL inh: 2.6

What do the screens show for `Cc1cc(C(=O)N2CCCC(N3CCN(c4ccccc4C)CC3)C2)no1` (stereo not drawn)?
CtBP-E1A inh: -3; ClpP mod: -0.4%; gsp agonist: -46%[inhibitor]

How did O=S(=O)(c1ccc(F)cc1)N1CCN(CC(O)COCc2ccccc2)CC1 (stereo not drawn) do in these assays?
gsp antag: 9%; CtBP-E1A inh: -10; ClpP mod: -0.9%; gsp agonist: -5%

Results for COc1ccc(CN2C=C3C(=O)C(C)(OC(=O)C4CCCC4)C(=O)C=C3C=C2c2ccsc2)cc1 (stereo not drawn) ?
Sfp PPTase inh: -16%&-15%; gsp antag: -2%; CtBP-E1A inh: -20; ClpP mod: 0.6%; TRPV1 PAM: inconclusive; Menin-MLL FL inh: inconclusive

What do the screens show for `Cc1c(C(=O)O)oc2c(F)cccc12`?
Sfp PPTase inh: 21%; gsp antag: -1%; CtBP-E1A inh: 7; gsp agonist: -15%[15.4 µM]; TRPV1 PAM: 1; Menin-MLL FL inh: -0.9

What do the screens show for `Cc1ccc(-c2cc(C(=O)NC3CCN(Cc4ccccc4)CC3)c3ccccc3n2)cc1`?
gsp antag: -1%; CtBP-E1A inh: -22; ClpP mod: -0.5%; gsp agonist: -4%[15.4 µM]; TRPV1 PAM: -2

Source: PubChem BioAssay (National Center for Advancing Translational Sciences (NCATS))
